# Screening data: PubChem, several laboratories
# FGF22 binding – binders of human FGF22 protein, primary screen, FGF22 synaptogenesis inhibitor project, biophysical, thermal shift, single point | Fibroblast growth factor 22 (Homo sapiens), Q9HCT0 | recombinant FGF22 thermal shift, SYPRO orange fluorescence; percent of sucrose octasulfate shift, DMSO zero | calls only at 9.99 µM | hit rate 1.5% among 340,000;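 active means melting point raised past a set limit in the mean and every replicate; inconclusive means no clear call; three in four hits are not shown here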
# Target sequence (Q9HCT0 whole entry, looked up): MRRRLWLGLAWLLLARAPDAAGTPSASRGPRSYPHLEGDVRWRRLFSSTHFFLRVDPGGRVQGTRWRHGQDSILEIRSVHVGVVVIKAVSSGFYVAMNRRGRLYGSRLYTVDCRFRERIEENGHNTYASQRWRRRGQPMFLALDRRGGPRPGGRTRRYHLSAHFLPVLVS
# Vif A3G – inhibitors of Vif binding to APOBEC3G peptide, primary screen, biochemical, TR-FRET, GST-Vif 1-94, biotin-A3G peptide, dose response retest (AID 1117319); TR-FRET GST-Vif / biotin-A3G peptide binding; higher % means a stronger effect; test concentration not given here; strong numbers were not always called active; one-dose inhibition, %; IC50 in µM for titrated hits; hit rate 0.57% among 260,000;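 active means above the screen mean plus three standard deviations and confirmed in dose response; inconclusive means results disagree or hit not tested in dose response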;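 further: Vif residues 1-94 fused to GST binding biotinylated APOBEC3G peptide 110-148; 0% = full assay without inhibitor and 100% = GST in place of GST-Vif; retest series ran down from 100 µM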
# MLL AF4-AF9 inh – inhibitors of AF4 peptide binding to AF9, primary screen, biochemical, AlphaScreen, biotin-AF4 peptide, FLAG-AF9, single point; Protein AF-9 (Homo sapiens), P42568; inhibition, % at 10 µM; hit rate 0.47% among 350,000;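 active means every replicate reaching a set inhibition limit, whatever the replicate mean, cut at about 25% in these data; inconclusive means mean inhibition reaches that limit but some replicates miss it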;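 further: 0% = plate neutral control median and 100% = total signal loss; the record names both 10 and 1 µM as test concentration; the first replicate is given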
# HNF4A DNA FP – change in binding of human HNF4A to DNA, primary screen, biochemical, fluorescence polarization, FITC-DNA; Hepatocyte nuclear factor 4-alpha (Homo sapiens), P41235; 1 h; activity change, % at 10 µM; hit rate 0.3% among 360,000; AID 1224865, 2016; in the data active means activity change above about 30%, passing the limit was not always enough;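 further: controls were the assay level and a saturating level of protein; the project sought stronger binding though the title names inhibitors; some compounds called inactive have numbers as strong as hits; positive values seem to mean higher polarization but the record does not say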
# Target sequence (P41235 whole entry, looked up): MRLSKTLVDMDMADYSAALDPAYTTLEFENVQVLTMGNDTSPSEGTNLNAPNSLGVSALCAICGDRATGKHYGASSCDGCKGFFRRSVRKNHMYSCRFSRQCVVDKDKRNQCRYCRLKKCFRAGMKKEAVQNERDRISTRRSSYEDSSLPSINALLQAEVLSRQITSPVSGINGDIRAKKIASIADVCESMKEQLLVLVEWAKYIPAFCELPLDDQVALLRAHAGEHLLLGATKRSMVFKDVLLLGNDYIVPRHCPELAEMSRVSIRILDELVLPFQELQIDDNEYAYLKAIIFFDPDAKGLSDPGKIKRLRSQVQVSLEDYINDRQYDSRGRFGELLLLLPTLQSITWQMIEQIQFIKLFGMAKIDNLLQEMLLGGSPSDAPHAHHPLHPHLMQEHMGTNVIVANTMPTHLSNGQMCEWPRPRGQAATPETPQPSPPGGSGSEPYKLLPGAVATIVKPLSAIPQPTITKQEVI
# ALR H2O2 inh – inhibitors of human ALR sulfhydryl oxidase, primary screen, biochemical, H2O2 detection, HRP-luminol luminescence, single point; inhibition, % (test concentration not listed); AID 485317, 2010; hit rate 3.8% among 290,000; purified ALR, DTT oxidation;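 active means mean and each replicate at 75% or more; inconclusive means only one of the two met; inactive means neither met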;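 further: stock transfer was 7.5 nL into about 7.5 µL; 0% = neutral wells and 100% = wells with inactivated enzyme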
# Target sequence (P55789 whole entry, looked up): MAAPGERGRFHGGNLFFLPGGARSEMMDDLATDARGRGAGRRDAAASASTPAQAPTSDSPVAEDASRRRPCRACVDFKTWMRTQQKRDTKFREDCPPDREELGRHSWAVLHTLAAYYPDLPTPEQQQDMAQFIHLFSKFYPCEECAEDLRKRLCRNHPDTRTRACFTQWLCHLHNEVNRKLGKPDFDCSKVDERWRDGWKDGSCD
# Ecoli rRNA inh – reduced GFP signal of wild-type E. coli, primary screen, bacterial rRNA inhibitor project, GFP/RFP fluorescence, OD600, single point. E. coli WT GFP vs humanized-ribosome RFP mutants, 24 h; stronger effect = lower value; DMSO median 0, no signal -100. GFP signal change (wild-type ribosome), % (concentration not given with the values). hit rate 1.6% among 350,000. AID 720706, 2013;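 active means significant combined selectivity score with lowered wild-type GFP, culture density cut under 30%, mutant RFP and density less affected; inactive means any of these conditions unmet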; further: one replicate is shown; some compounds called inactive have numbers as strong as hits
# Ecoli growth – E. coli growth inhibition, primary screen, OD600. Escherichia coli growth, 23 h; stronger effect = lower value. OD600 absorbance (concentration not given with the values). hit rate 0.21% among 330,000;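 active means OD600 absorbance below the run mean of sample wells minus 3.6 SD, in any replicate, cut at about 0.56 in these data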;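 further: stock transfer was 300 nL into about 60 µL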
# Ecoli rRNA inh OD600 – also measured in Ecoli rRNA inh; calls as there; OD600 change, %; measured here: OD600 growth;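 optical density of the mix in the first replicate; 0 = DMSO median and -100 = no signal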
# Ecoli rRNA inh RFP – recorded beside Ecoli rRNA inh, whose call it bears; RFP signal change, %; measured here: RFP humanized mutant strains;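 first replicate; 0 = DMSO median and -100 = no signal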
# * hit, by the source's call; i = inactive; ? = inconclusive; . = no result given; + = active, no number.
SMILES,FGF22 binding,Vif A3G,MLL AF4-AF9 inh,HNF4A DNA FP,ALR H2O2 inh,Ecoli rRNA inh,Ecoli rRNA inh OD600,Ecoli rRNA inh RFP,Ecoli growth
CCCCNC(=O)C1C2C=CC(C2)C1C(=O)O (centres undefined),i,10%,-11,-1.6,-16,-1,7,-1.6,0.69
COc1ccc(NC(=S)NCc2cccs2)cc1OC,i,-5%,1.4,0.3,-27,4,6,0.5,0.66
CNC(=O)C[C@@H]1CC[C@@H]2[C@@H](COc3ccc(NC(=O)Nc4ccc(F)c(F)c4)cc3C(=O)N2C)O1,i,.,1.4,.,.,-4,-5,1.1,.
O=C1CSC(=Nc2ccccc2Cl)N1,.,-7%,.,0.1,-9,.,.,.,0.69
O=C1Nc2ccccc2C(=O)N2[C@H](c3ccc(F)cc3)[C@@H]3C(=O)N(Cc4ccccc4)C(=O)[C@@H]3[C@H]12,i,.,-2.0,1.6,-17,-7,-6,16,.
Cc1ccc(-n2nnnc2SCC(=O)c2c(N)n(C3CC3)c(=O)[nH]c2=O)c(C)c1,i,-5%,0.7,2.1,-4,4,5,1.4,0.72
CC(C)c1ccc(C2/C(=C(\O)c3ccc4c(c3)OCCO4)C(=O)C(=O)N2CCN2CCOCC2)cc1 (centres undefined),i,0%,4.4,1.6,9,3,2,-1.1,0.61
CCOc1cc(NC(=O)c2ccco2)c(OCC)cc1NC(=O)Cc1ccc(OC)c(OC)c1,.,-10%,.,5.1,-25,.,.,.,0.73
CCOC(=O)COc1nc2c(c(-c3ccco3)c1C#N)CCc1ccccc1-2,i,.,-1.2,2.6,2,3,-10,1.1,0.67
C[C@@H]1CCCCO[C@@H](CN(C)C(=O)NC2CCCCC2)[C@H](C)CN([C@@H](C)CO)C(=O)c2cc(NC(=O)CCCN(C)C)ccc2O1,i,.,1.2,.,.,0,-5,-0.3,.
Cc1cnc(NC(=O)C2CC(=O)N(c3cccc(Cl)c3)C2)s1 (centres undefined),i,.,-2.0,-0.5,-9,3,12,2.6,0.69
O=c1cc(Nc2ccc3c(c2)OCO3)[nH]c(=O)n1-c1ccc(Br)cc1,.,?,.,3.3,-2,.,.,.,0.67
CCOc1ccc(Cn2nnc(C(=O)NCCc3ccc(Cl)cc3)c2N)cc1,i,1%,-0.9,1.6,.,3,12,-0.1,0.8
CC(=O)c1ccc(OCCCC(=O)Nc2cc(S(=O)(=O)N3CCCCC3)ccc2C)cc1,i,6%,-3.9,3.9,.,1,11,7.5,0.7
c1ccc(CCn2nnnc2C(c2cccnc2)N2CCN(c3ccccc3)CC2)cc1 (centres undefined),.,-1%,.,3.1,71,.,.,.,0.68
CCOC(=O)C1CCCN(C(=O)c2c(-c3ccccc3Cl)noc2C)C1 (centres undefined),.,68%,.,-2.7,-8,.,.,.,0.74
COc1ccc2nc(NC(=O)CSc3nnc4n3C(C)(C)Cc3ccccc3-4)sc2c1,.,11%,.,-2.4,-9,.,.,.,0.75
Cc1ccc(S(=O)(=O)N[C@H]2CC[C@@H](CC(=O)NCc3ccncn3)O[C@@H]2CO)cc1,i,.,-0.5,.,.,5,9,-1.4,.
CC1CCN(CCCCOc2ccccc2-c2ccccc2)CC1,i,2%,-39,0.3,-17,-29,-56,-4.4,0.65
O=C(CCNS(=O)(=O)c1cccc2nsnc12)NCc1ccc(F)cc1,i,.,0.0,1.6,1,-4,-4,-3.5,0.67
C[C@@H]1CCCCO[C@H](CN(C)S(C)(=O)=O)[C@@H](C)CN([C@H](C)CO)C(=O)c2cc(NS(=O)(=O)c3ccc(Cl)cc3)ccc2O1,i,.,-5.5,.,.,-2,-8,-0.3,.
CCN(CC)CCn1c(=N)n(CC(O)c2ccc(OC)c(OC)c2)c2ccccc21 (centres undefined),i,-6%,2.8,-1.1,0,6,12,-2.3,0.69
O=C(Nn1cnc2ccccc2c1=O)C1CCCCC1,.,0%,.,1.7,1,.,.,.,0.69
CCCCCCCNC(=O)C1(CC2CC(c3ccc(Cl)cc3)=NO2)CCN(C(=O)C2CCCC2)CC1 (centres undefined),i,.,5.5,1.5,-11,8,16,-4.4,0.72
COc1ccc(C)cc1NC(=O)n1ncc2cc(Cl)ccc21,i,0%,-1.3,3.0,.,7,5,-0.5,0.68

# Four compounds out of the list above, arranged by the number in Ecoli rRNA inh, high to low:
molecule | Ecoli rRNA inh
COc1ccc(NC(=S)NCc2cccs2)cc1OC | 4
CC(=O)c1ccc(OCCCC(=O)Nc2cc(S(=O)(=O)N3CCCCC3)ccc2C)cc1 | 1
CCCCNC(=O)C1C2C=CC(C2)C1C(=O)O (centres undefined) | -1
C[C@@H]1CCCCO[C@H](CN(C)S(C)(=O)=O)[C@@H](C)CN([C@H](C)CO)C(=O)c2cc(NS(=O)(=O)c3ccc(Cl)cc3)ccc2O1 | -2

# Returning to the listing; the 4 compounds before the break are reprinted first.
SMILES,FGF22 binding,Vif A3G,MLL AF4-AF9 inh,HNF4A DNA FP,ALR H2O2 inh,Ecoli rRNA inh,Ecoli rRNA inh OD600,Ecoli rRNA inh RFP,Ecoli growth
CCN(CC)CCn1c(=N)n(CC(O)c2ccc(OC)c(OC)c2)c2ccccc21 (centres undefined),i,-6%,2.8,-1.1,0,6,12,-2.3,0.69
O=C(Nn1cnc2ccccc2c1=O)C1CCCCC1,.,0%,.,1.7,1,.,.,.,0.69
CCCCCCCNC(=O)C1(CC2CC(c3ccc(Cl)cc3)=NO2)CCN(C(=O)C2CCCC2)CC1 (centres undefined),i,.,5.5,1.5,-11,8,16,-4.4,0.72
COc1ccc(C)cc1NC(=O)n1ncc2cc(Cl)ccc21,i,0%,-1.3,3.0,.,7,5,-0.5,0.68
Cc1ccc(S(=O)(=O)N(C)C[C@H]2OCCCC[C@H](C)Oc3ccc(NC(=O)Nc4ccc5c(c4)OCO5)cc3C(=O)N([C@@H](C)CO)C[C@@H]2C)cc1,i,.,5.0,.,.,3,2,-2.0,.
COc1ccccc1NC(=O)c1cnc(SC)nc1,i,.,-3.8,2.7,8,8,6,-0.5,0.68
CCN(CC)C(=O)Cn1cc(C(=O)C(=O)NCc2cccs2)c2ccccc21,i,-101%,1.1,-0.3,-9,17,9,0.8,0.69
CCOC(=O)c1sc(NC(=O)CSc2nnc(C)s2)c(C(=O)OCC)c1C,.,1%,.,9.6,3,.,.,.,0.69
CCOC(=O)c1c(S(=O)(=O)Nc2cccc(-c3ccno3)c2)c(C)n(C)c1C,i,5%,2.1,2.0,0,13,4,5.9,0.7
COc1ccc(N2CCN(C3CC(=O)N(c4ccc5c(c4)OCCO5)C3=O)CC2)cc1 (centres undefined),.,-1%,.,-3.0,.,.,.,.,0.66
COc1ccccc1NC(=O)N1C[C@@H]2[C@H](c3ccccc31)[C@H](CO)N2CC1CCCC1,i,.,1.9,.,.,-8,-9,-0.8,.
COc1ccc(OCC(O)CNC(=O)Nc2ccc(Cl)cc2)cc1 (centres undefined),i,11%,-1.4,-7.4,-16,-2,3,3.2,0.69
O=c1ccc(-c2ccc(S(=O)(=O)Nc3ccc(F)cc3)o2)n[nH]1,i,.,1.1,0.2,-1,4,8,0.8,0.68
O=C(COC(=O)C1COc2ccccc2O1)Nc1ccc(Cl)cc1 (centres undefined),i,-1%,-1.3,4.5,-1,13,14,0.4,0.66
CCS(=O)(=O)c1nc(S(=O)(=O)c2ccc(C)cc2)c(N2CCCC2)s1,i,.,0.0,6.7,-3,6,8,-0.6,0.68
c1ccc(CCNCc2ccco2)nc1,i,6%,-13,2.3,.,16,16,6.4,0.66
COc1ccc(C(=O)N/C(=C\c2cn(C)c3ccccc23)C(=O)NCCCn2ccnc2)cc1,i,3%,11,3.2,-6,3,2,1.7,0.69
O=C(N/C(=C\c1ccc2c(c1)OCO2)C(=O)N1CCOCC1)c1cccs1,.,29%,.,2.1,1,.,.,.,0.69
CCN(CC)CCCOC(=O)C1(c2ccccc2)CCCC1,.,-1%,.,6.5,4,.,.,.,0.7
COC(=O)C1CCN(S(=O)(=O)Cc2ccccc2Cl)CC1,i,.,-0.4,-0.1,-1,33,-1,5.5,0.63
COC(=O)c1ccc(-c2nc(CN3CCN(C(=O)c4ccco4)CC3)c(C)o2)cc1,i,11%,1.6,2.8,.,.,.,.,.
O=C(CSc1nnc(-c2ccc(O)cc2)n1Cc1ccco1)c1ccccc1,.,1%,.,-1.4,94*,.,.,.,0.69
COc1ccc(C(C)=O)cc1COC(=O)c1cnc(C)cn1,.,28%,.,1.8,13,.,.,.,0.68
CC(C)NC(=O)N(C)C[C@H]1OCCCC[C@H](C)Oc2ccc(NS(=O)(=O)c3cn(C)cn3)cc2C(=O)N([C@@H](C)CO)C[C@H]1C,i,.,0.5,.,.,10,6,-0.9,.
CCCCNC(=O)c1onc(CSc2cccc(C)c2)c1C(=O)O,i,0%,-5.1,-2.5,.,-14,-6,-1.7,0.68
C/C=C/c1cnc2c(c1)C(=O)N([C@H](C)CO)C[C@@H](C)[C@@H](CN(C)C(=O)Nc1ccc(OC)cc1)O2,i,.,-2.4,.,.,3,10,-2.8,.
O=C(Cc1ccc(S(=O)(=O)N2CCOCC2)s1)Nc1cc(C(F)(F)F)ccc1N1CCCC1,i,3%,-0.4,5.2,11,2,-6,1.2,0.71
CN(CC(=O)Nc1ccccc1Br)C(=O)CN1CCN(c2ccccc2Cl)CC1,i,-2%,-2.0,-6.1,-6,-46,-69,-11,0.66
COc1ccc(NC(=S)Nc2ccc(F)cc2)c(OC)c1,.,.,.,-0.8,-57,.,.,.,0.64
# The results go on:
SMILES,FGF22 binding,Vif A3G,MLL AF4-AF9 inh,HNF4A DNA FP,ALR H2O2 inh,Ecoli rRNA inh,Ecoli rRNA inh OD600,Ecoli rRNA inh RFP,Ecoli growth
C[C@H](CO)N1C[C@H](C)[C@H](CN(C)Cc2ccc(C(F)(F)F)cc2)Oc2ccc(NC(=O)Nc3cccc4ccccc34)cc2C1=O,i,.,1.1,.,.,2,-2,1.9,.
Cc1ccccc1C(=O)N(Cc1cccs1)C1CCS(=O)(=O)C1 (centres undefined),i,.,-0.2,2.6,1,8,8,0.0,0.65
O=C(NCc1cccnc1)NC1CCCN1S(=O)(=O)c1ccc(Cl)cc1 (centres undefined),.,3%,.,-2.1,3,.,.,.,0.74
COCCCn1c(=N)c(C(=O)NCc2ccc3c(c2)OCO3)cc2c(=O)n3cccc(C)c3nc21,i,.,-1.9,1.9,.,-1,6,13,0.7
O=C(NCCN1CCC(n2c(=O)[nH]c3cc(Cl)ccc32)CC1)c1ccc(F)cc1,i,.,0.1,.,.,-3,-6,2.9,.
CCOc1ccc(-c2c(C(=O)N/N=C/c3cccnc3)nnn2-c2nonc2N)cc1,i,-3%,-1.5,2.3,1,10,17,2.7,.
O=C(COC(=O)c1nc(Cl)ccc1Cl)NCc1ccc(Cl)cc1Cl,i,12%,1.2,0.2,.,-11,-11,-0.5,0.62
O=C(O)CCN(Cc1ccccc1)S(=O)(=O)c1ccccc1Cl,+,15%,-1.1,0.8,.,-20*,-3.3*,-0.8*,0.73
Cc1ccc(Cn2ccc(NC(=O)c3cc(-c4ccccc4)on3)n2)cc1,i,18%,0.5,-2.6,0,2,12,2.4,0.72

# These rows are one share of the data; count on the stated rates, not on these rows.
